Screening data as filed in PubChem BioAssay.
TRPML1 inh: qHTS for Inhibitors of the Human Mucolipin Transient Receptor Potential 1 (TRPML1); Mucolipin-1 (Homo sapiens), Q9GZU1; 390,000 tested, 0.02% active; TRPML1-inducible cells, Ca2+ dye fluorescence, FDSS; stronger effect = lower value; inhibition of EC80 agonist-evoked calcium signal; AID 624415, 2012; activity change, negative = inhibition, % (concentration not given with the values); in the data active means activity change below about -50%; inconclusive means about -30% to -50%; inactive means above about -30%;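 note: stimulus is agonist 54-4 at its EC80 concentration; % is set by controls: 0 for no effect and ±100 for the full control effect; compound concentration not given in the record; the text of the record puts the active cut at -80%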
Target sequence (Q9GZU1 whole entry, looked up): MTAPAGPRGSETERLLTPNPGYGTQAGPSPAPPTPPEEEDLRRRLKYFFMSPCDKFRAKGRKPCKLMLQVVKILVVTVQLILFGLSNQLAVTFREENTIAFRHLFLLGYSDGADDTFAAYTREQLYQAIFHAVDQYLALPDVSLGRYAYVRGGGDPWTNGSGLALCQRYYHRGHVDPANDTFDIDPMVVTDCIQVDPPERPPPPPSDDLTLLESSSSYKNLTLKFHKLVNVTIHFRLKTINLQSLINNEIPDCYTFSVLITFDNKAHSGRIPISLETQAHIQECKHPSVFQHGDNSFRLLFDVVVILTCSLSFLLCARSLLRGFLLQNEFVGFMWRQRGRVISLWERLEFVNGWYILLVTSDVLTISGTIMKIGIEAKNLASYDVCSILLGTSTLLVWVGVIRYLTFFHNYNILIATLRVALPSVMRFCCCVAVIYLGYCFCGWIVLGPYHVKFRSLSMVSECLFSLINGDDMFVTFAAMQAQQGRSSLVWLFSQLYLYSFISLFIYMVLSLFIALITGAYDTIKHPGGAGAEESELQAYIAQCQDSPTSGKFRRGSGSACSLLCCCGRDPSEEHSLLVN
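Calcium fluorescence in TRPML1-DL cells induced overnight with Tet: a 110 s read after compound pin addition, then a 110 s antagonist read after challenge with 54-4 at 4 uM final (EC80).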
TRPML1 agonist: qHTS for Agonists of the Human Mucolipin Transient Receptor Potential 1 (TRPML1); Mucolipin-1 (Homo sapiens), Q9GZU1; TRPML1-expressing cells, Ca2+ dye fluorescence, FDSS; host cell line not named in the record; reference of the full effect not given here; activation, % (concentration not given with the values); 410,000 tested, 0.12% active; in the data active = activation above about 50%; inconclusive = about 30% to 50%; inactive = below about 30%; note: 0% is about no effect; the text of the record puts the active cut at 80%
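In this qHTS format, compounds were pin-transferred onto Ca8-dye-loaded TRPML1-DL cells induced with Tet overnight, and intracellular Ca2+ fluorescence was recorded kinetically for 110 s after a 10 s baseline. A subsequent 4uM final 54-4 (EC80) addition followed by a second 110 s read served as the antagonist phase.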
ClpP mod: qHTS Assay for Activators of ClpP; ATP-dependent Clp protease proteolytic subunit (Bacillus subtilis (strain 168)), P80244; 340,000 tested, 1.9% active; AID 651965, 2013; purified B. subtilis ClpP, FRET peptide cleavage, 20 min; Potency, µM (highest dose often 57.5 µM), without a hit: top-dose activity change, negative = active; active = well fitted falling curve with a large enough effect; inconclusive = small, poorly fitted or top-dose-only effect; inactive = no such curve, though single readings can be large or run the other way; note: potency is the fitted concentration of half-maximal effect; the source files actives as falling curves though it sought activators and does not explain the sign; nearly all actives have a fitted effect of over 65% in size; many hits overshoot -100%
Target sequence (P80244 whole entry, looked up): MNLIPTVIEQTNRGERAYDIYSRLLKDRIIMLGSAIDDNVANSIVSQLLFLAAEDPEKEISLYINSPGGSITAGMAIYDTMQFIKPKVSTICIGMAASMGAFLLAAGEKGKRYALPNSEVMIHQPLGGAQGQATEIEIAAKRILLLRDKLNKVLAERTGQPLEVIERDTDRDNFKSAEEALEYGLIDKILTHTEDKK
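Buffer: 100 mM Tris/HCl pH8, 100 mM KCl, 0.05% low protease BSA, 2.5% glycerol, 0.01% Tween-20. ClpP 10 microg/mL final; 20 min RT; delta FRET normalized to ADEP and DMSO controls.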
gsp antag: qHTS for Antagonists of gsp, the Etiologic Mutation Responsible for Fibrous Dysplasia/McCune-Albright Syndrome: qHTS; gsp-mutant cells, cAMP HTRF, 30 min; control for the full effect not named in the record; Potency, µM (doses to about 76.9 µM), for inactives: at the top dose activity change, negative = inhibition, actives largely listed as inhibitors; 340,000 tested, 0.4% active; AID 624288, 2012; active = falling curve of any shape with a large fitted effect; inconclusive = falling curve, mostly with a smaller effect; inactive = flat or rising curve; cell line not stated here;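 note: intracellular cAMP measured with PDE inhibitor Ro 20-1724 present during compound exposure; potency is the fitted concentration of half-maximal effect; % is set by controls: 0 for no effect and ±100 for the full control effect; nearly all actives have a fitted effect of over 65% in size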
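Cells, 2000/well, grown 16–24 h in DMEM 10% FBS with 0.5 mg/ml G418, then compounds plus […] (300 uM addition stock), 30 min at 37C. cAMP read by HTRF (cAMP-d2 and anti-cAMP antibody-K in lysis buffer) after 30 min RT.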
gsp ag: qHTS for Agonist of gsp, the Etiologic Mutation Responsible for Fibrous Dysplasia/McCune-Albright Syndrome: qHTS | gsp mutant cells, cAMP HTRF, 30 min; control for the full effect not named in the record | Potency, µM (highest dose often 76.9 µM), for the others: at the highest dose activation (cAMP increase), actives largely listed as activators | 340,000 tested, 0.13% active; active = well fitted activation curve with a large enough effect; inconclusive = small, poorly fitted or top-dose-only effect, or another doubt; inactive = no such curve, though single readings can be large or run the other way; cell line not stated here;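 note: phosphodiesterase inhibitor Ro 20-1724 added with compounds to block cAMP breakdown; potency is the fitted concentration of half-maximal effect; nearly all actives have a fitted effect of over 60% in size; about a fifth of the inactives were tested at one dose only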
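Cells stably selected in G418 were plated at 2000/well, grown 16-24 hr, then given compounds in DMSO with the PDE inhibitor […] (300 uM solution added) for 30 min at 37C; cAMP was read by HTRF.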
Menin MLL FP FL: qHTS Assay for Inhibitors Targeting the Menin-MLL Interaction in MLL Related Leukemias: Competition With Fluorescein Labeled MLL-derived Peptide | Fluorescence polarization, fluorescein-MLL peptide displacement from menin | FP activity change, % at 61.4 µM | 290,000 tested, under 10 active; inconclusive = falling polarisation curve, or a change in total fluorescence; inactive = total fluorescence flat and polarisation flat or rising; no compound was filed as active; the % refers to the polarisation; negative = inhibition;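 note: % of control where 0% means no effect; inhibitors lower the polarisation; unlabelled MLL peptide was the positive control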
Numbers without * were called inactive; ? = inconclusive; nt = not tested or not shown; [ ] = remark or other dose.

SMILES	TRPML1 inh	TRPML1 agonist	ClpP mod	gsp antag	gsp ag	Menin MLL FP FL
CCc1ccc(OCC2c3cc(OC)c(OC)cc3CCN2C(=S)NC)cc1 (stereo unspecified)	37	0.3	nt	?	14%[15.4 µM]	2.3
COc1ccc(-c2ccc(SCC(=O)N3CCCC3)nn2)cc1OC	-8	1.4	0.3%	-5%	6%	0.9
CCOc1ccccc1NS(=O)(=O)c1ccc2oc(=O)ccc2c1	nt	nt	0.4%	-3%	-13%	-3.8
Cc1ccc(-c2nnn(CC(=O)N(CC(=O)NC3CCCC3)c3ccccc3F)n2)o1	-10	0.2	nt	-7%	5%[15.4 µM]	-1.2
CN(C(=O)CSc1nc2scc(-c3ccccc3)c2c(=O)[nH]1)c1ccccc1	68	2.3	-0.7%	?	-8%	nt
CC1CN(CCc2ccccc2)c2nc3c(c(=O)n(CC(N)=O)c(=O)n3C)n2C1 (stereo unspecified)	-6	-1.3	-21%	-11%	21%	4.1
Cc1cccc(OCc2cc(=O)n3c4c(sc3n2)CCCC4)c1C	-2	-0.9	-1.6%	nt	nt	nt
Cc1ccc2c(=O)c(C(=O)c3cccc(Cl)c3)cn(CC(=O)Nc3ccc4c(c3)OCCO4)c2n1	-7	2.4	4.2%	nt	nt	nt
CCOC(=O)c1ccc(S(=O)(=O)N2CCC(C(=O)N3CCN(c4ccccc4OC)CC3)CC2)cc1	7	1.5	0.5%	-43%	-6%	nt
O=C(CCC1CCCCC1)Nc1cc(Cl)ccc1N1CCOCC1	26	-0.1	-0.8%	-17%	30%[15.4 µM]	nt
O=C(O)c1ccccc1Nc1ccc([N+](=O)[O-])cc1	5	-0.3	0.4%	?	-1%[15.4 µM]	8.4
Cn1nc([N+](=O)[O-])nc1Sc1nnc(-c2ccccc2)o1	-6	1.1	0.0%	16%	3%[15.4 µM]	-0.9

Five neighbouring compounds from above:
SMILES	TRPML1 inh	TRPML1 agonist	ClpP mod	gsp antag	gsp ag	Menin MLL FP FL
Cc1cccc(OCc2cc(=O)n3c4c(sc3n2)CCCC4)c1C	-2	-0.9	-1.6%	nt	nt	nt
Cc1ccc2c(=O)c(C(=O)c3cccc(Cl)c3)cn(CC(=O)Nc3ccc4c(c3)OCCO4)c2n1	-7	2.4	4.2%	nt	nt	nt
CCOC(=O)c1ccc(S(=O)(=O)N2CCC(C(=O)N3CCN(c4ccccc4OC)CC3)CC2)cc1	7	1.5	0.5%	-43%	-6%	nt
O=C(CCC1CCCCC1)Nc1cc(Cl)ccc1N1CCOCC1	26	-0.1	-0.8%	-17%	30%[15.4 µM]	nt
O=C(O)c1ccccc1Nc1ccc([N+](=O)[O-])cc1	5	-0.3	0.4%	?	-1%[15.4 µM]	8.4

New compounds follow:
SMILES	TRPML1 inh	TRPML1 agonist	ClpP mod	gsp antag	gsp ag	Menin MLL FP FL
COCc1cc(C)nc(Nc2ccccc2C)c1C#N	11	2.4	0.2%	4%	11%	-1.1
COc1ccc(N2CCN(C(=O)C(C)(C)Oc3ccc(Cl)cc3)CC2)cc1	11	0.2	-1.6%	-13%	-42%[inhibitor]	0.0
COc1ccc(Br)cc1C1Nc2ccccc2C(=O)N1NC(=O)c1ccncc1 (stereo unspecified)	9	0.6	-3.5%	-2%	-30%	3.1
CC1(C)CC(=O)c2cc(C(=O)NCc3ccco3)c(=O)n(-c3ccc(Cl)cc3)c2C1	-4	-1.2	-9.7%	-12%	9%	-2.5
O=C(CSc1nc2ccsc2c(=O)n1Cc1ccc(C(=O)O)cc1)NCC1CCCO1 (stereo unspecified)	-8	-0.4	-2.0%	5%	?	-7.9
COC(=O)c1sc(NC(=O)c2ccc(Cn3cc(Cl)cn3)o2)c(C#N)c1C	18	1.0	-1.9%	-16%	12%	8.3
COc1ccc(OC)c(CNC(=O)c2cc3c(-c4ccc(OC)c(OC)c4)nn(C)c3s2)c1	-27	-0.5	4.5%	nt	nt	nt
CCOC(=O)c1ccc(-n2c(CN3CCN(CCO)CC3)nc3ccc([N+](=O)[O-])cc3c2=O)cc1	4	-0.5	1.4%	-7%	-3%	3.5
COc1cccc(/C=N/NC(=O)CNC(=O)COc2cccc(C)c2)c1O	-18	-0.8	-4.7%	-6%	21%	4.7
O=C(Nc1cccc(Cl)c1Cl)C1CC(=O)N(c2ccc(Br)cc2)C1 (stereo unspecified)	-7	1.2	-2.0%	8%	4%	-0.9
Cc1ccc(NC(=O)COC(=O)CCc2ccccc2)cc1S(=O)(=O)N1CCOCC1	-6	-0.5	-0.9%	-4%	7%	nt
O=C(N[C@@H]1CCC(=O)N(CC[C@H](Oc2ccccc2)c2ccccc2)CC1)OCc1ccccc1	0	2.2	1.5%	-16%	nt	-0.9
COc1cc2c3c(c1OC)C1(C=CC(=NO)C=C1)CC3N(C(C)=O)CC2 (stereo unspecified)	3	-0.8	0.0%	3%	27%	-0.1
COc1cccc(C(=O)Nc2nnc(-c3cccs3)s2)c1	-4	-0.8	?	14%	?	-0.2
C[C@H](NC(=O)c1cc2c([nH]c3ccccc32)c(-c2ccccc2)n1)C(=O)O	-2	-0.5	4.1%	-12%	15%	-2.7
Cc1cccc(N2CCN(C(=O)CCC(=O)N3Cc4ccccc4Oc4ncccc43)CC2)c1C	12	0.5	1.8%	?	-32%[inhibitor]	nt
Cn1cccc1C(=O)OCC(=O)NNC(=O)c1ccc([N+](=O)[O-])cc1	-6	0.0	nt	4%	1%[15.4 µM]	nt
O=C(NC(=S)Nc1ccccc1N1CCN(C(=O)c2ccccc2)CC1)c1ccccc1F	50	0.6	32µM*	-24%	1%[15.4 µM]	nt
c1ccc2c(c1)nc(-c1ccncc1)n1nnnc21	15	0.4	-2.0%	-2%	-5%	-1.7
NC(=O)C1CCN(C(c2ccccc2)c2nnnn2C2CCCC2)CC1 (stereo unspecified)	1	-0.6	-3.1%	-3%	-52%[inhibitor]	-0.4
Cc1ccccc1N1C(=O)C2C3CCC(O3)C2C1=O (stereo unspecified)	3	0.0	-0.8%	-1%	11%[15.4 µM]	6.0
O=C(O)c1ccc(N/N=C/c2ccncc2)cc1	4	2.2	-0.8%	-8%	?	-4.0
CN(C)c1ccc2c(c1[N+](=O)[O-])Cc1ccccc1-2	7	0.8	-1.9%	-21%	-22%	nt
CC1=C(C(=O)N(C)C)C(c2cccs2)NC(=O)N1 (stereo unspecified)	20	0.1	-2.6%	7%	-7%	4.9
O=C(COC(=O)c1ccc(NS(=O)(=O)c2cccs2)cc1)NCc1ccco1	nt	nt	-1.5%	-1%	?	15
COC(=O)C1=C(C)NC(=O)CC1c1cccc(OC)c1OC (stereo unspecified)	-10	0.6	0.8%	-2%	-2%	2.0
O=C(NCc1ccccn1)Nc1cccc([N+](=O)[O-])c1	18	3.1	1.1%	10%	?	-1.7
COC(=O)CCCNC(=O)c1ccc2[nH]c(C)c(C)c2c1	19	0.6	-2.1%	2%	6%[15.4 µM]	0.9
CCN(CC)S(=O)(=O)c1cc(C(=O)N2CCc3ccccc32)ccc1Cl	-15	0.2	-1.9%	6%	-5%[15.4 µM]	0.5
CC(=O)N1c2ccc(S(=O)(=O)NCCC(=O)Nc3ccccc3C)cc2CC1C (stereo unspecified)	0	0.5	-3.6%	3%	6%	1.0
NC(=O)NCCCC(NC(=O)c1ccc(C#CC2(O)CCCCC2)cc1)C(=O)O (stereo unspecified)	0	0.3	nt	2%	-5%[15.4 µM]	-1.5
CCCCC(=O)N1CCN(c2ccc(OC)cc2[N+](=O)[O-])CC1	1	-0.1	1.3%	-18%	-19%[15.4 µM]	-0.9
CC1CCCCN1C(=O)c1cccc(NC(=O)c2ccccc2)c1 (stereo unspecified)	15	-0.5	nt	10%	-7%[15.4 µM]	1.6
O=C(CSc1nc2[nH]ncc2c(=O)[nH]1)Nc1cccc([N+](=O)[O-])c1	27	-0.4	nt	14%	-5%[15.4 µM]	nt
Fc1cccc(NC(=S)NCCc2ccccc2)c1	18	0.2	nt	0%	-11%	6.4
O=C(Nc1ccc2c(c1)OCCO2)c1cccnc1Oc1ccccc1	22	-1.2	0.5%	-2%	16%	-1.1
CCOC(=O)C1=C(C)NC(C)=C(C(=O)OCC)C1C(=O)OCC(=O)NCc1ccco1	-10	-0.9	nt	0%	0%	nt
CC(C)OC(=O)/C(C#N)=C/c1ccc(-c2ccc(Cl)c(Cl)c2)o1	10	0.0	-1.0%	nt	nt	nt
O=C(CCc1c[nH]c2ccccc12)N1CCN(S(=O)(=O)c2ccccc2)CC1	17	-0.4	nt	-5%	11%[15.4 µM]	nt
C=CCn1c(=S)[nH]c2cc(-c3ccccc3)sc2c1=O	-1	0.4	nt	2%	?	-5.2
COc1nc(OC)nc(N2CCC(NC(=O)C(Cc3cccc(OC)c3OC)NC(C)=O)CC2)n1 (stereo unspecified)	46	1.8	0.4%	9%	2%	-0.7
Cc1ccc2cccc(NC(=O)c3cccc4c(Cl)cccc34)c2n1	18	0.7	-15%	nt	nt	nt
O=C(CCN1C(=O)/C(=C/c2ccc(F)cc2)SC1=S)NC1CCS(=O)(=O)C1 (stereo unspecified)	-1	-0.5	1.7%	1%	-3%	nt
C/C=C/C(=O)Nc1ccc(N2CCN(c3ccc(C(F)(F)F)cn3)CC2)nc1	19	0.2	-2.6%	-5%	7%	2.8
CC(C)N(Cc1ccccc1)S(=O)(=O)c1ccc2c(c1)NC(=O)CO2	-3	0.1	-0.7%	-5%	3%	nt
O=C(O)CCc1nc2ccccc2c(=O)[nH]1	0	-0.3	nt	7%	5%[15.4 µM]	-0.6
COC(=O)c1ccccc1OCCCOc1ccc(C=O)cc1OC	0	0.8	-2.9%	-1%[15.4 µM]	-5%	4.2
Cc1ccc(CNC(=O)c2ccc3c(c2)N(Cc2ccccc2Cl)C(=O)CS3)cc1	-11	1.1	-2.6%	nt	nt	nt
COc1ccc(O)c(/C=N/Nc2nc3ccccc3[nH]2)c1	1	-0.7	nt	4%	-15%	1.8
Cc1nn2c(-c3ccco3)nnc2c2ccccc12	-3	0.1	0.1%	2%	4%	-0.8
Cc1nc(SCC(=O)Nc2ccccc2)c2oc3ccccc3c2n1	44	-0.5	0.8%	32%[activator]	?	-0.6

Outcome played no part in choosing rows (roughly 2.1% active in at least one column).
